GIRK2 act – activators of human GIRK2 potassium channels; AID 1259325; calls only for hits at 25 µM; P48051; HEK293-GIRK2 thallium flux, Thallos fluorescence; hit rate 0.05% among 63,000;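 active = among the strongest 0.2% of first-round signals and kept after retests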;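 also: first round at about 10 µM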
Target sequence (P48051 whole entry, looked up): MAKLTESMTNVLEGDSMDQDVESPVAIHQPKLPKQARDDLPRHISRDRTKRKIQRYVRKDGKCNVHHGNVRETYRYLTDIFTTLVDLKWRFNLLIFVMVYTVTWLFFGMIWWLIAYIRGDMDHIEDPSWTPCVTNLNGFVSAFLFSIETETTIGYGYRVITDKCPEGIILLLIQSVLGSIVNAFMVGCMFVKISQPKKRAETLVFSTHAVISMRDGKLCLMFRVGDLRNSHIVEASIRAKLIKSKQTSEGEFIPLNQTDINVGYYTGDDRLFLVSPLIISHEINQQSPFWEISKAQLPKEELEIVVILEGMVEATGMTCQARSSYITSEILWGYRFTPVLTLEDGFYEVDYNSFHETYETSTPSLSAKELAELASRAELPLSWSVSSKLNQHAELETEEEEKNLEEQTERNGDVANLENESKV
Calls only; i = inactive; + = active, no number. Some of the compounds tested; the hit share may differ from the screen's.

GIRK2 act	structure
i	COc1ccc(C2(CNC(=O)Cc3cccs3)CCOCC2)cc1
i	O=C(Nc1ccc2c(c1)OCO2)N1CCC(c2nnc(-c3ccco3)s2)CC1
i	CCOc1ccccc1CN1C(=O)C(O)(CC(C)=O)c2cccc(Cl)c21 (centres undefined)
i	COc1cc(/C=C/C(=O)N2CCN(Cc3nc(C)cs3)CC2)cc(OC)c1OC
i	O=C(Nc1cccc(Br)c1)c1nnn(-c2ccc(F)cc2)n1
i	COc1ccc(C)cc1S(=O)(=O)N1CC(c2nc(C3CC3)no2)C1
i	O=S(=O)(NCCc1ccoc1)c1ccc(Cl)s1
i	CN(C)c1cccc(C(=O)Nc2cnoc2)c1
i	COc1cccc2sc(N(C)CC(=O)NCCc3cccs3)nc12
i	CCOCCCNC(=O)c1nnn(-c2ccc(OC)cc2)c1-c1cccnc1
i	COc1ccc(C(=O)N2CCC3(O)CCCCC3C2)cc1OC (centres undefined)
i	COc1ccc(Cc2nnc(C3CCN(C(=O)c4cc(C)on4)CC3)s2)cc1
i	COc1ccc(NC(=O)c2cccs2)cc1N1CCCC1=O
i	O=C(NCc1ccccn1)c1csc2nc(-c3ccc(F)cc3)cn12
i	CCCN1C(=O)/C(=C/c2ccc(N3CCCC3)cc2)NC1=S
i	NS(=O)(=O)c1ccc(NC(=O)C2CCCN(c3ccc(-c4ccc(Cl)cc4)nn3)C2)cc1 (centres undefined)
i	O=S(=O)(Cc1nc(-c2cccc(Br)c2)no1)c1ccccc1
i	COc1ccc(-c2noc(-c3ccc(=O)n(Cc4ccccc4Cl)c3)n2)cc1
i	O=C(CSc1nnc(Cn2ccc(=O)[nH]c2=O)o1)N1CCC(Cc2ccccc2)CC1
i	O=C(Cn1ncccc1=O)NCCNC(=O)c1ccc(NC(=O)C2CC2)cc1
i	Cn1nnn(-c2ccc(NC(=O)Nc3cccs3)cc2)c1=O
i	CN(C)CC#CCNC(=O)Cc1ccc(-c2ccccc2)cc1
i	CCOc1ccc(-c2cc3c(=O)n(Cc4nc(-c5ccc(F)c(Cl)c5)no4)ncn3n2)cc1
i	O=C(Nc1ncc(CN2CCCCC2)s1)c1cccnc1
i	C=CCN(CC=C)S(=O)(=O)c1ccc(C(=O)N2CCCc3ccccc32)cc1

In a second layout: results already given.
COc1ccc(C)cc1S(=O)(=O)N1CC(c2nc(C3CC3)no2)C1
  GIRK2 act = i

O=S(=O)(NCCc1ccoc1)c1ccc(Cl)s1
  GIRK2 act = i

CN(C)c1cccc(C(=O)Nc2cnoc2)c1
  GIRK2 act = i

Next results follow.
GIRK2 act	structure
i	Cc1ccc(-c2cc3c(=O)n(Cc4nc(-c5cccs5)no4)ncn3n2)c(C)c1
i	COCC(=O)N1CCCc2ccc(NS(=O)(=O)/C=C/c3ccc(C)cc3)cc21
i	Cn1c(NCCN(CCO)CCCc2ccc([N+](=O)[O-])cc2)cc(=O)n(C)c1=O
i	Cc1cc(C)c(NC(=O)Cn2nc3c(N4CCN(c5ccccc5)CC4)nccn3c2=O)c(C)c1
i	O=S(=O)(CCc1ccccc1)N1CCN(c2ccc(-c3ccc(Cl)cc3)nn2)CC1
i	CCC(C)C(=O)OC1CC(O)C23C4OCC5(C(O)CC2C1(C)C(O)O4)C3C(=O)C(O)C1(C)C(O)(c2ccoc2)CC2OC251 (centres undefined)
i	NC(=S)Nc1ccccc1F
i	Cc1cc(NCc2cccnc2)n2nc(C)c(-c3ccc(Cl)cc3)c2n1
i	CCOc1ccc(NC(=O)Cn2cnc3c(sc4ccccc43)c2=O)cc1
i	Cc1ccc(NC(=O)c2cnc3c(c(C)nn3-c3ccccc3)c2Cl)cc1C
i	CN(CC(=O)NCc1nc2ccccc2[nH]1)c1nc2c(Cl)cccc2s1
i	Clc1ccccc1C(c1ccccc1)(c1ccccc1)n1ccnc1
i	O=S(=O)(NCC#CCOc1cccc(C(F)(F)F)c1)C1CC1
i	Cc1cc(NC(=O)C2c3ccccc3Oc3ccccc32)n(CCO)n1
i	Cc1ccc2nc(NC(=O)CCc3csc(NC(=O)Nc4ccccc4)n3)sc2c1
i	CCOc1ccc(NC(=O)Cn2nc3c(N4CCN(c5ccccc5)CC4)nccn3c2=O)cc1
i	COc1ccccc1NC(=O)Cn1c(C)nc2c(c1=O)CN(Cc1ccccc1)CC2
i	CCc1noc(-c2ccnc(-n3ncc(C(=O)N4CCN(c5ccccc5)CC4)c3C)c2)n1
i	O=C(Cn1[nH]c(-c2ccc(Cl)cc2)cc1=O)Nc1ccc2c(c1)OCCO2
i	O=C(CCS(=O)(=O)c1ccccc1)NCC1CCN(Cc2cccs2)CC1
i	CCc1ccccc1NC(=O)Cn1cccc(S(=O)(=O)N2CCCC2)c1=O
i	COc1ccc(C2(C)NC(=O)N(CC(=O)NC3CCCC3)C2=O)cc1 (centres undefined)
i	COc1ccccc1-n1c(C)cn2c3c(=O)n(CC(C)=O)c(=O)n(C)c3nc12
i	CCOc1ccc(N2CC(C)Cn3c2nc2c3c(=O)[nH]c(=O)n2C)cc1 (centres undefined)
i	CCn1c(SCC(=O)NCc2ccc(OC)cc2)nc2c(-c3ccc(C)cc3)csc2c1=O
i	COc1cc(OC)cc(N2C(=O)C3N=NN(c4ccc(Br)c(C)c4)C3C2=O)c1 (centres undefined)
i	CC(C)(C)OC(=O)NC1CCN(C(=O)C2CCN(c3cc(Oc4ccccc4)ncn3)CC2)CC1
i	CC1CCCCN1S(=O)(=O)c1cc(Br)ccc1Br (centres undefined)
i	CC(C)NC(=O)CSc1nnc(N2CCN(C(=O)COc3ccc(F)cc3)CC2)s1
i	CN(c1ccsc1C(=O)NCc1cc(F)cc(F)c1)S(=O)(=O)c1ccccc1
i	O=C(NCc1cccnc1)c1ccc2c(c1)C(=O)c1ccccc1-2
i	COCCCNC(=O)C1CCC(Cn2c(=O)c3sccc3n(Cc3ccccc3)c2=O)CC1 (centres undefined)
i	CCOC(=O)Cn1c(=O)c2c(nc3n2CCCN3c2ccc(OC)cc2)n(C)c1=O
i	COc1ccc(S(=O)(=O)N2CCCOC2CNC(=O)C(=O)NCc2ccccn2)cc1 (centres undefined)
i	O=C(C1CCC1)N1CCC(Oc2ncccc2Cl)CC1
i	Cc1csc(-n2nnc(C(=O)N3CCN(c4ccccn4)CC3)c2C)n1
i	CS(=O)(=O)c1ccc(N2CCCC2)c([N+](=O)[O-])c1
i	CS(=O)(=O)c1ccc(NC(=O)c2cccc(S(C)(=O)=O)c2)cc1
i	COc1ccc2c(=O)c3c(oc2c1)C(=O)N(CCN(C)C)C3c1cccs1 (centres undefined)
i	O=C(Nc1ccc(F)cc1F)C1CCN(S(=O)(=O)c2ccc(F)cc2)CC1
i	COc1ccc(/C=C/C(=O)Nc2ccc(Nc3cc(-n4cccn4)ncn3)cc2)cc1OC
i	Cc1ccc(Cn2c(SCC(N)=O)nc3c2c(=O)n(C)c(=O)n3C)cc1
i	COCCN(Cc1ccoc1)S(=O)(=O)c1ccc(N2CCCCS2(=O)=O)cc1
i	COc1cccc(CC2S/C(=C(/C#N)C(=O)Nc3ccc(C)cc3)N(c3ccc(C)cc3)C2=O)c1 (centres undefined)
i	COc1ccccc1COc1cc(NC(=O)CCc2c(C)noc2C)ncn1
i	COc1ccc(Oc2coc3c4c(ccc3c2=O)OCN(C2CCS(=O)(=O)C2)C4)cc1 (centres undefined)
i	Cc1ccc(C2NC(=O)NC2=O)cc1 (centres undefined)
i	COc1cccc(CNC(=O)Cn2c(=O)nc(NCCC(C)C)c3ccccc32)c1OC
i	COc1ccc(CC(C)(O)CNC(=O)COc2ccccc2OC)cc1 (centres undefined)
i	Cc1noc(CNC(=O)C2CCN(C(=O)Cc3cccs3)CC2)n1

Other structures follow.
GIRK2 act	structure
i	Cc1ccc(NC(=O)c2cn(C)nc2S(=O)(=O)N2CCN(c3cccc(Cl)c3)CC2)cc1C
i	c1cncc(CSc2ncccc2-c2nc3ccccc3[nH]2)c1
+	COc1ccccc1-n1nnc(C(=O)Nc2nc(C)cs2)c1-c1ccccn1
i	COc1cccc(N2CCN(S(=O)(=O)c3ccsc3C(=O)Nc3ccc(C)c(C)c3)CC2)c1
i	O=C(c1ccc(Cl)cc1Cl)N1CCC(Oc2ccccn2)CC1
i	Cc1ccc(C)c(NC(=O)CCc2csc(NC(=O)c3ccc[nH]c3=O)n2)c1
i	COc1ccccc1OCC#CCNC(C)=O
i	COc1ccccc1N1CCN(CCNC(=O)c2ccc3nsnc3c2)CC1
i	COc1ccc(S(=O)(=O)N2CCCc3cc(NS(=O)(=O)c4ccc(C)cc4C)ccc32)cc1
i	COc1ccc(-c2coc3c4c(ccc3c2=O)OCN(C2CCCC2)C4)cc1OC
i	CCCc1cc(-n2ccnc2C)n2nc3nc(C)cc(C)c3c2n1
i	N#Cc1ccsc1NC(=O)CCS(=O)(=O)Cc1ccccc1
i	O=C(N(Cc1ccsc1)Cc1ccccn1)C1(c2ccc(F)cc2)CC1
i	CCCCC[C@@](C)(O)/C=C/[C@@H]1[C@@H](C/C=C\CCCC(=O)OC)[C@@H](O)C[C@H]1O
i	O=C(Nc1ccc(-c2ccn[nH]2)cc1)c1ccc(-n2cccc2)cc1
i	COc1cc(Nc2c(C(=O)N3CCCCCC3)cnc3nc(C)ccc23)cc(OC)c1OC
i	CS(=O)(=O)c1ccc2nc(N3CCN(C(=O)c4ccco4)CC3)sc2c1
i	O=C(c1cc(-c2cccs2)[nH]n1)N1CCN(C(=O)c2cnn3ccccc23)CC1
i	CCc1ccc(N2CC(c3nc(-c4cccc(Cl)c4)no3)CC2=O)cc1 (centres undefined)
i	COc1ccc(C)cc1NC(=O)Cn1c(=O)n(Cc2ccc(F)cc2)c(=O)c2nccnc21
i	CC(=O)Nc1ccc(NC(=O)Cn2nc(-c3ccc(Br)cc3)ccc2=O)cc1
i	NC(=O)c1nnn(-c2ccc(NC(=O)c3cc(=O)c4ccccc4o3)cc2)n1
i	c1ccc(-c2[nH]ncc2-c2nc(-c3cccs3)no2)cc1
i	O=C(NCc1cnn2ccccc12)c1ccc(C(F)(F)F)cc1
i	O=C(Nc1ccc2c(c1)OCO2)N1CCOC(c2ccccc2)C1 (centres undefined)

Filtered by structure: the compounds so far with a nitro group on carbon.
GIRK2 act	structure
i	Cn1c(NCCN(CCO)CCCc2ccc([N+](=O)[O-])cc2)cc(=O)n(C)c1=O
i	CS(=O)(=O)c1ccc(N2CCCC2)c([N+](=O)[O-])c1

New compounds follow.
GIRK2 act	structure
i	COC(=O)c1ccc(C2c3c(oc4ccc(C)cc4c3=O)C(=O)N2c2nccs2)cc1 (centres undefined)
i	Cc1[nH]nc(-c2ccc(OCCN3CCC(C(N)=O)CC3)cc2O)c1-c1ccc(Cl)cc1
i	CS(=O)(=O)c1ccc(Nc2nc(C(=O)Nc3ccc(F)cc3)cs2)cc1
i	COc1ccc(SCC2CCN(C(=O)c3ccsc3)CC2)cc1
i	CNC(=O)c1cncc(/C=C/c2c(Cl)cccc2Cl)c1
i	CCCc1cc2c(=O)c(-c3ccc4c(c3)OCCCO4)c(C)oc2cc1OS(C)(=O)=O
i	O=C(O)c1cc(=O)c2cc(Cl)ccc2o1
i	COC(=O)c1ccc(C2C(C(=O)c3ccco3)=C(O)C(=O)N2c2cc(C)on2)cc1 (centres undefined)
i	O=C(CCS(=O)(=O)c1ccccc1)NCC1CCN(C(=O)c2cccnc2)CC1
i	COc1cccc2sc(OC3CN(C(=O)c4cccs4)C3)nc12
i	CC(=O)Cn1c(CN2CCCCC2)nc2c1c(=O)n(C)c(=O)n2C
i	Cc1cccc(NC(=O)c2ccc(S(=O)(=O)N3CCCC3)cc2)c1C
i	O=C(Nc1cc(Cl)ccc1Cl)c1c2c(nn1C1CCS(=O)(=O)C1)CCC2 (centres undefined)
i	CCc1nnc(-c2ccc(NC(=O)c3cc(=O)c4ccccc4o3)cc2)o1
i	COc1ccc(N2CCN(C(=O)N3CCCC3)CC2)cc1
i	COc1ccc(Oc2cncnc2-c2ccc(OCc3ccccc3F)cc2O)cc1
i	COc1cc(C)c(C)cc1S(=O)(=O)Nc1ccc2c(c1)CCCN2S(C)(=O)=O
i	COC(=O)c1cc2c(=O)n3cccc(C)c3nc2n(CCO)c1=N
i	CC1=NN(CC(N)=O)c2nc3c(c(=O)n(Cc4ccccc4F)c(=O)n3C)n2C1
i	CCSc1nc(C)cc(C(F)(F)F)c1C#N
i	CCOc1ccc(NC(=O)N2CCOCC2)cc1
i	COCC(C)NC(=O)C(=O)Nc1cc(Cl)ccc1C#N (centres undefined)
i	COc1cc(OC)c(NC(=O)CSc2cc(-c3nc(C)no3)ccn2)cc1Cl
i	O=C(Nc1ccc(Cl)c(Cl)c1)N1CCC(c2nnc(C(F)(F)F)o2)CC1
i	CNC(=O)c1cn(-c2ccc(SCC(=O)NCc3ccco3)nn2)cn1
i	Cc1cc(=O)n2c(-c3ccc(NS(=O)(=O)c4cc(F)ccc4F)cc3)csc2n1
i	COc1cc2[nH]c3c(=O)n(CC(=O)Nc4cccc(SC)c4)cnc3c2cc1OC
i	CCS(=O)(=O)N1CCCc2ccc(NS(=O)(=O)c3cc(Cl)ccc3OC)cc21
i	O=C(NCC(c1ccc(F)cc1)N1CCOCC1)C(=O)Nc1ccncc1 (centres undefined)

Structures shown so far that have an aryl thioether with sulfur outside any ring:
GIRK2 act	structure
i	O=C(CSc1nnc(Cn2ccc(=O)[nH]c2=O)o1)N1CCC(Cc2ccccc2)CC1
i	CCn1c(SCC(=O)NCc2ccc(OC)cc2)nc2c(-c3ccc(C)cc3)csc2c1=O
i	CC(C)NC(=O)CSc1nnc(N2CCN(C(=O)COc3ccc(F)cc3)CC2)s1
i	Cc1ccc(Cn2c(SCC(N)=O)nc3c2c(=O)n(C)c(=O)n3C)cc1
i	c1cncc(CSc2ncccc2-c2nc3ccccc3[nH]2)c1
i	COc1ccc(SCC2CCN(C(=O)c3ccsc3)CC2)cc1
i	CCSc1nc(C)cc(C(F)(F)F)c1C#N
i	COc1cc(OC)c(NC(=O)CSc2cc(-c3nc(C)no3)ccn2)cc1Cl
i	CNC(=O)c1cn(-c2ccc(SCC(=O)NCc3ccco3)nn2)cn1
i	COc1cc2[nH]c3c(=O)n(CC(=O)Nc4cccc(SC)c4)cnc3c2cc1OC

Bioassay records (PubChem)
